# From PubChem
# RanGTP-Impb inh: inhibitors of RanGTP-importin-beta interaction, primary screen, biochemical, FRET, CFP-Ran, YFP-importin-beta, homogeneous | cell-free CFP-Ran/YFP-importin-beta FRET ratio | inhibition, % (no concentration beside the values) | AID 2216 | hit rate 1.1% among 300,000;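 active = most replicates above 15%; inconclusive = exactly half above 15%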;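 note: 0% = DMSO wells and 100% = Ran loaded with GDP instead of GTP; wells of about 40 µL received 100 nL stock; the first replicate is given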
# LANA-H2B inh: blocks KSHV LANA binding to histone H2A/H2B | Q9QR71 | cell-free LANA-H2A/H2B peptide, fluorescence polarization | inhibition, % (concentration not given with the values) | hit rate 0.6% among 320,000 | AID 2629; in the data active = inhibition mostly above about 10%, no sharp cut-off; inactive = mostly below about 6.7%;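 note: stock transfer was 7.5 nL into about 10 µL; 0% = median of vehicle wells and 100% = median of positive control wells; one replicate is shown; the record names a cut of 25% in any replicate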
# Target sequence (Q9QR71 whole entry, looked up): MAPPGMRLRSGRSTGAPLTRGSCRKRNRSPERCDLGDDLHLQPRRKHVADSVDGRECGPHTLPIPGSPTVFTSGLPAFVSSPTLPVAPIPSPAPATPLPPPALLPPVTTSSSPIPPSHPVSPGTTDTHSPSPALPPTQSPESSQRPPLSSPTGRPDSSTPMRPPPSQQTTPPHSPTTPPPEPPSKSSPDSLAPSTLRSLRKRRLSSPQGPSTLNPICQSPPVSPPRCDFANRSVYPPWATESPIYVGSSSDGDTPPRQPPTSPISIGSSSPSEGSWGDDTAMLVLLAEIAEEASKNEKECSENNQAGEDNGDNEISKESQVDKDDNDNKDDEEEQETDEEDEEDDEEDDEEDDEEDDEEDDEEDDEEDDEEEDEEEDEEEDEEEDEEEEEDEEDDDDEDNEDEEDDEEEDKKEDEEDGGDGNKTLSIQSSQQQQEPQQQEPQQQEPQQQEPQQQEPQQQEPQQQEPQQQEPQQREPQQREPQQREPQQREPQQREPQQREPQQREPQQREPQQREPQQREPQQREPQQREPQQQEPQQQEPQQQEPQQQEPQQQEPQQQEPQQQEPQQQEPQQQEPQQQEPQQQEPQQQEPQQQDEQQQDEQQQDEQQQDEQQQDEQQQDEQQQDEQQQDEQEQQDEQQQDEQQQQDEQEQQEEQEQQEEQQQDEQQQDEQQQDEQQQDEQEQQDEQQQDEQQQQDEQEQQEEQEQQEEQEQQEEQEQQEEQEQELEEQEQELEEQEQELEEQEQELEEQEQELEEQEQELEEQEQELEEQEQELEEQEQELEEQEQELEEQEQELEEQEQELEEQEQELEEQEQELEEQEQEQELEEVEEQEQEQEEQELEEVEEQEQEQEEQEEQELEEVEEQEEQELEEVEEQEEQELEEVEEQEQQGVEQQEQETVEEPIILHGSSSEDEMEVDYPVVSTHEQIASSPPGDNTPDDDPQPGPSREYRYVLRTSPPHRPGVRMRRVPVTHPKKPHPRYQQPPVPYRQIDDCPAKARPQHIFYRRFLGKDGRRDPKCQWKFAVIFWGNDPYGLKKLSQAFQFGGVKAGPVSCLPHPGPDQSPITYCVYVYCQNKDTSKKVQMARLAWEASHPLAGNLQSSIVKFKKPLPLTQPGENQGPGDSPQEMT
# Beta cell apopt: blocks beta cell apoptosis; INS-1E cytokine-induced death, ATP luminescence, 48 h; percent of positive-control rescue, neutral wells zero; protection from apoptosis, % (test concentration not listed); hit rate 0.8% among 300,000;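 active = all replicates at 75% or more, or half of them and the mean; inconclusive = half reach 75% but not the mean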;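 note: 0% = cytokine-treated negative control wells and 100% = positive control rescue; higher means more ATP so stronger rescue from cytokine killing; wells of about 40 µL received 100 nL stock; the first replicate is given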
# T cruzi inh: blocks replication of Trypanosoma cruzi | T. cruzi beta-gal in NIH3T3, luminescence, 90 h | inhibition, % (test concentration not listed) | hit rate 1.4% among 300,000;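 active = mean inhibition across valid replicates above about 55%, limit read from the data; inconclusive = mean below that limit but half or more replicates reach it; inactive = mean below it, under half of replicates reach it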;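 note: signal also drops with host cell toxicity which is not excluded here; 0% = plate median of DMSO wells and 100% = zero luminescence signal; higher percent means less beta-gal luminescence so fewer parasites; stock transfer was 50 nL into about 50 µL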
# A1 inh: inhibitors of the anti-apoptotic protein A1, read as caspase activation. hit rate 0.066% among 330,000. MEF A1-2A-BIM cells, Caspase-Glo 3/7 luminescence, 3 h; percent of clofoctol response, vehicle zero. AID 2462. caspase activation, % (no concentration beside the values);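 active = over half of replicate activation scores above 10%, or exactly half above 10 with the replicate mean above 10; inconclusive = replicate mean below 10 yet half the replicates above 10; inactive = over half of replicates below 10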;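 note: wells of about 30 µL received 50 nL stock; many hits fall short of the cut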
# Calb FLC: affects C. albicans growth with fluconazole; C. albicans CaCi-2 (fluconazole-resistant clinical isolate) + fluconazole, Alamar Blue growth, 48 h; growth inhibition, % (no concentration beside the values); hit rate 0.57% among 300,000; AID 1979;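 active = most replicates above 75%; inconclusive = exactly half above 75%; inactive = most below 75%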;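 note: all wells also contain fluconazole at 8 µg/ml as a sub-toxic cotreatment; 0% = median of DMSO wells and 100% = median of geldanamycin control wells; wells of about 8 µL received 7.5 nL stock; the first replicate is given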
# Beta2AR agonist: activates human beta-2 adrenergic receptor causing internalization. P07550. Am2.2-beta2AR cells, FAP receptor internalization, flow cytometry; reference of the scale not given here. response, % (test concentration not listed). hit rate 0.43% among 340,000;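 active = response above a set limit, near 3 SD of response in nonfluorescent compounds, cut at about 42% in these data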;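 note: stock transfer was 100 nL into about 11 µL; a reference agonist was the positive control; negative values mostly stem from fluorescent compounds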
# UCH37 DUB inh: blocks the human deubiquitinase UCH37; Q9Y5K5; purified proteasome/UCH37, Ub-AMC cleavage fluorescence; inhibition, % (test concentration not listed); hit rate 0.33% among 330,000;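 active = mean of two replicates above 20%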;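 note: 0% = compound-free wells with enzyme and 100% = wells lacking proteasome; stock transfer was 100 nL into about 20 µL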
#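 Material: Human UCH37 enzyme supplied as purified proteasome complex | Schedule: 30 min compound-proteasome preincubation then 25 min substrate reaction, room temperature | Detection: AMC fluorescence from Ub-AMC cleavage, excitation 355 nm, emission 460 nm | Benchmarks: Wells without proteasome as full block, compound-free enzyme plus substrate as uninhibited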
# Starred values were filed as active, the others as inactive; i = inactive; ? = inconclusive; · = not tested or not shown.
entry	SMILES	T cruzi inh	Calb FLC	LANA-H2B inh	UCH37 DUB inh	A1 inh	RanGTP-Impb inh	Beta cell apopt	Beta2AR agonist
1	Cc1ccccc1CN1CCC(CNC(=O)Nc2ccc(F)cc2F)CC1	5	-4	-8.5	3.4	-0.2	1.3	-2	-4
2	O=C1c2ccccc2CN1CCNS(=O)(=O)c1ccc(Cl)cc1	-11	4	-1.1	0.6	-0.5	6.4	·	-8
3	OCCN1CCN(c2nnc(-c3ccccc3)c3ccccc23)CC1	10	-8	-4.3	1.3	0.6	-5.0	-4	-2
4	Cc1ccc(NC(=O)c2ccc3nc[nH]c3c2)c(O)c1	-1	1	-2.6	4.6	-0.4	-2.3	-2	12
5	CC(C)Cn1c(=O)c(C(=O)Nc2ccccc2S(N)(=O)=O)c(O)c2ccccc21	-14	-8	3.9	-13	-1.7	1.9	6	0
6	O=C(O)CSc1cc(C(=O)c2ccccc2O)cn2c(=O)c3c(-c4ccccc4)csc3nc12	-4	10	0.5	10	0.4	4.3	-1	6
7	Cc1c(NS(=O)(=O)c2cccc3nsnc23)c(=O)n(-c2ccccc2)n1C	-15	-14	1.1	6.1	1.4	-4.4	-3	-4
8	CCOc1ccc(C2C(C(=O)Nc3ccc(F)cc3)=C(C)Nc3nc(CCCO)nn32)cc1 (stereo not given)	-6	3	4.4	1.2	0.7	4.9	-6	0
9	Cc1ccc2c(c1)CCCN2C(=O)c1ccco1	-14	0	-0.3	0.2	1.0	-4.3	-8	8
10	CCOc1ccc(N(CC(=O)Nc2ccc(CC)cc2)S(=O)(=O)c2c(C)[nH]c(=O)[nH]c2=O)cc1	-3	4	-2.8	1.0	-0.1	5.4	-3	1
11	Cc1ccc(N=CC=C2OC(C)(C)C(C)(C)O2)cc1	37	8	0.5	·	-0.2	0.8	11	-3
12	COc1ccc(S(=O)(=O)n2nc(OC(=O)c3ccncc3)cc2N)cc1	-22	4	-3.1	1.1	0.2	-0.6	-11	2
13	Cc1cnc(C(=O)OCC(=O)Nc2ccc(C)c(S(=O)(=O)N3CCCCCC3)c2)cn1	-1	-6	1.3	-0.4	0.5	-2.5	-6	-3
14	Nc1nccnc1C(=O)OCC(=O)NCCc1ccc(S(N)(=O)=O)cc1	1	-1	4.0	i	0.0	1.2	3	-5
15	CCc1ccc2nc(SCC(=O)N(CC)CC)c(C#N)cc2c1	15	0	-3.3	1.6	-0.5	2.6	7	-9
16	Cc1nc2ccccc2c(=O)n1NC(=O)c1ccc(Cl)c([N+](=O)[O-])c1	35	0	-0.6	6.0	2.2	2.0	-13	10
17	O=C(Nc1ccc(Cl)cc1)Nc1ccc2c(c1)N1CCN=C1S2	42	17	1.6	1.6	-0.3	-3.6	4	36
18	COc1cccc(-n2c(CNc3ccc(F)cc3)nnc2SCC(N)=O)c1	0	0	-0.4	-0.1	-0.6	5.9	-1	-5
19	Cc1cc(SCC(=O)N(C)c2c(N)n(Cc3ccccc3)c(=O)[nH]c2=O)nc2ccccc12	-12	-4	1.0	3.7	1.5	1.3	-2	-7
20	O=C(O)c1ccccc1S(=O)CCO (stereo not given)	-12	-6	1.7	5.5	0.4	?	0	-2
21	CCc1cc2c(COC(=O)c3cccc(NS(C)(=O)=O)c3)cc(=O)oc2cc1O	-1	-7	2.4	-65	0.0	?	5	16
22	CCC(=O)c1ccc2ncccc2c1	-2	-13	4.4	4.9	0.3	-3.0	2	0
23	COc1cccc(CN(C)C(=O)C2CSC3(C)CCC(=O)N23)c1OC (stereo not given)	·	·	5.1	0.1	-0.7	·	1	-5
24	CN(C(=O)CSc1nnc(COc2ccccc2F)n1N)C1CCS(=O)(=O)C1 (stereo not given)	-6	2	-3.7	1.6	0.4	-2.6	3	6
25	O=C(c1cccs1)N1N=C(c2ccccc2)CC1c1ccc(O)cc1 (stereo not given)	1	-7	1.2	-2.4	0.2	0.7	-4	-7
26	Clc1ccc(COc2ccccc2-c2ccnc3ncnn23)cc1	1	-5	0.6	-33	-0.2	-3.2	0	9
27	O=C(CN1C(=O)CSC1=O)Nc1ccccc1N1CCOCC1	1	-2	2.4	2.5	-0.9	2.0	-5	-6
28	CCS(=O)(=O)N1Cc2ccccc2CC1C(=O)Nc1ccc(F)cc1 (stereo not given)	-7	-2	-1.7	0.9	0.7	1.1	-2	-6
29	COc1ccc(C(=O)Nc2cccc3nc(C)ccc23)c(OC)c1	-3	44	-0.1	2.8	-0.2	5.0	-1	8
30	COc1cc(OC)c(C2C(C#N)=C(N)Oc3cc(C)n(CCCN4CCOCC4)c(=O)c32)cc1OC (stereo not given)	-3	36	0.9	0.0	-1.5	0.0	-3	-1

# One compound at a time (already shown). Order of screens: T cruzi inh, Calb FLC, LANA-H2B inh, UCH37 DUB inh, A1 inh, RanGTP-Impb inh, Beta cell apopt, Beta2AR agonist
# CN(C(=O)CSc1nnc(COc2ccccc2F)n1N)C1CCS(=O)(=O)C1 (stereo not given) in the list: -6, 2, -3.7, 1.6, 0.4, -2.6, 3, 6
# COc1cc(OC)c(C2C(C#N)=C(N)Oc3cc(C)n(CCCN4CCOCC4)c(=O)c32)cc1OC (stereo not given) in the list: -3, 36, 0.9, 0.0, -1.5, 0.0, -3, -1
# CCC(=O)c1ccc2ncccc2c1 in the list: -2, -13, 4.4, 4.9, 0.3, -3.0, 2, 0
# COc1ccc(C(=O)Nc2cccc3nc(C)ccc23)c(OC)c1 in the list: -3, 44, -0.1, 2.8, -0.2, 5.0, -1, 8
# CCc1cc2c(COC(=O)c3cccc(NS(C)(=O)=O)c3)cc(=O)oc2cc1O in the list: -1, -7, 2.4, -65, 0.0, ?, 5, 16

# (continued)
entry	SMILES	T cruzi inh	Calb FLC	LANA-H2B inh	UCH37 DUB inh	A1 inh	RanGTP-Impb inh	Beta cell apopt	Beta2AR agonist
31	CC1CN(C(=O)c2cccc(S(=O)(=O)Nc3cc(Cl)ccc3Cl)c2)CC(C)O1 (stereo not given)	4	8	-1.1	5.6	0.8	1.2	2	-3
32	CCOC(=O)CNC(=O)N1CCc2ccc(NC(=O)c3ccccc3OC)cc2C1	-6	-4	-0.9	2.2	-0.6	-0.7	·	-9
33	COc1ccc(C(=O)/C=C/c2ccc(OC)c(O)c2)c(F)c1	-30	2	-2.1	4.0	1.1	-1.2	-2	18
34	c1csc(-c2csc(-c3cccs3)n2)c1	-9	-21	0.6	-2.0	-2.8	0.9	-3	-16
35	CCN(C(=O)c1ccc(Br)cc1)c1ccccc1	-7	3	11	4.5	-0.8	4.2	1	-4
36	CC(C)OC(=O)Cn1nnc(-c2ccccc2)n1	-3	2	-5.5	3.0	0.9	5.0	-4	6
37	O=C1NC(c2ccc(Cl)cc2Cl)Oc2ccccc21 (stereo not given)	-4	-60	0.5	2.2	-0.5	-1.8	-8	-2
38	CC/C(O)=C1\C(=O)CC(c2ccccc2)CC1=NC(C)C (stereo not given)	-1	11	1.6	5.7	-0.5	-1.8	4	6
39	COc1cc(-c2c(-c3ccsc3)sc3ccccc23)cc(OC)c1OC	·	·	3.5	-0.1	-1.3	·	-1	0
40	Cc1ccc2oc(C(=O)N(Cc3ccc(N(C)C)cc3)C3CCS(=O)(=O)C3)c(C)c2c1 (stereo not given)	17	·	-5.6	1.7	1.1	·	-3	-9

# Compounds above with a furan ring, fused or not:
entry	SMILES	T cruzi inh	Calb FLC	LANA-H2B inh	UCH37 DUB inh	A1 inh	RanGTP-Impb inh	Beta cell apopt	Beta2AR agonist
9	Cc1ccc2c(c1)CCCN2C(=O)c1ccco1	-14	0	-0.3	0.2	1.0	-4.3	-8	8
40	Cc1ccc2oc(C(=O)N(Cc3ccc(N(C)C)cc3)C3CCS(=O)(=O)C3)c(C)c2c1 (stereo not given)	17	·	-5.6	1.7	1.1	·	-3	-9

# Next section
entry	SMILES	T cruzi inh	Calb FLC	LANA-H2B inh	UCH37 DUB inh	A1 inh	RanGTP-Impb inh	Beta cell apopt	Beta2AR agonist
41	COc1ccc(C(=O)NC2CCCc3ccccc32)cc1Br (stereo not given)	-3	-2	-0.9	-0.1	-0.8	-6.4	4	5
42	CCC(C)NC(=O)Cn1cnc2sc(C)cc2c1=O (stereo not given)	-6	2	0.4	0.3	1.2	-0.1	·	-3
43	CC(OC(=O)c1nc(-c2ccccc2)n(-c2ccccc2)n1)C(=O)Nc1cc(Cl)cc(Cl)c1 (stereo not given)	-28	-8	-1.3	4.5	0.2	4.9	-5	7
44	Cc1ccc(C)c(N(CC(=O)NC(C)(C)C)C(=O)CNC(=O)c2cccs2)c1	-6	-2	-2.3	4.4	0.8	-2.2	-3	-2
45	O=C(CC1C(=O)NCCN1CC1CCCCC1)NC1(c2ccccc2)CC1 (stereo not given)	8	1	-2.2	-6.6	0.5	2.1	2	-4
46	O=C(CN1CCCCC1)c1c[nH]c2ccccc12	-6	5	-0.1	3.2	0.0	3.8	-2	-6
47	Cc1[nH]n(-c2ccc([N+](=O)[O-])cc2)c(=O)c1C=NCCc1c[nH]c2ccccc12	20	-1	-0.7	5.7	-0.6	0.9	14	9
48	CCONC(=O)Nc1ccccc1[N+](=O)[O-]	-7	-15	-0.9	8.2	-0.1	-4.1	6	-4
49	CSc1nc(-c2ccco2)nn1S(=O)(=O)c1ccccc1	-15	-3	-3.5	·	0.3	1.7	-2	·
50	NS(=O)(=O)c1ccc(CCNc2nc3c(-c4cccc(F)c4)nnn3c3ccccc23)cc1	14	7	4.7	·	0.0	6.0	19	1

# Six entries from above, arranged by their value in UCH37 DUB inh, descending:
entry	SMILES	LANA-H2B inh	UCH37 DUB inh	RanGTP-Impb inh	Beta2AR agonist
48	CCONC(=O)Nc1ccccc1[N+](=O)[O-]	-0.9	8.2	-4.1	-4
43	CC(OC(=O)c1nc(-c2ccccc2)n(-c2ccccc2)n1)C(=O)Nc1cc(Cl)cc(Cl)c1 (stereo not given)	-1.3	4.5	4.9	7
44	Cc1ccc(C)c(N(CC(=O)NC(C)(C)C)C(=O)CNC(=O)c2cccs2)c1	-2.3	4.4	-2.2	-2
46	O=C(CN1CCCCC1)c1c[nH]c2ccccc12	-0.1	3.2	3.8	-6
41	COc1ccc(C(=O)NC2CCCc3ccccc32)cc1Br (stereo not given)	-0.9	-0.1	-6.4	5
45	O=C(CC1C(=O)NCCN1CC1CCCCC1)NC1(c2ccccc2)CC1 (stereo not given)	-2.2	-6.6	2.1	-4

# (further entries)
entry	SMILES	T cruzi inh	Calb FLC	LANA-H2B inh	UCH37 DUB inh	A1 inh	RanGTP-Impb inh	Beta cell apopt	Beta2AR agonist
51	CNC(=O)Nc1cc(C(C)(C)C)no1	-4	-6	8.3	1.7	0.7	2.9	-2	-3
52	NC(=O)C12CCCC(Br)(CCC1)C2	-4	-11	-0.2	5.2	1.0	3.9	-1	-1
53	Cc1ccc(C(=O)OCC(=O)Nc2cc(S(=O)(=O)N3CCOCC3)ccc2C)cc1	-2	-5	-3.6	-1.0	1.2	-2.7	-6	0
54	CCC(C)c1ccc(S(=O)(=O)N2CCN(C(=O)COc3ccc4c(C)cc(=O)oc4c3)CC2)cc1 (stereo not given)	16	20	-2.3	·	-1.1	3.1	20	10
